Assay outcomes deposited in PubChem BioAssay by National Center for Advancing Translational Sciences (NCATS).
gsp antag: antagonizes gsp, the McCune-Albright syndrome mutation | AID 624288 | actives 0.4% (n = 340,000) | gsp-mutant cells, cAMP HTRF, 30 min; control for the full effect not named in the record | Potency, µM (titrated, usually from 76.9 µM), for the others: top-dose activity change, negative = inhibition, usual class: inhibitors; active = falling curve of any shape with a large fitted effect; inconclusive = falling curve, mostly with a smaller effect; inactive = flat or rising curve; cell line not stated here;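 note: intracellular cAMP measured with PDE inhibitor Ro 20-1724 present during compound exposure; potency is the fitted concentration of half-maximal effect; % is set by controls: 0 for no effect and ±100 for the full control effect; nearly all actives have a fitted effect of over 65% in size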
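G418-selected cells were plated in DMEM/10% FBS for 16-24 h at 37C, then treated with compounds plus the PDE inhibitor […] (300 uM solution added) for 30 min at 37C. Intracellular cAMP was measured by HTRF after 30 min lysis at room temperature.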
ClpP mod: qHTS Assay for Activators of ClpP. actives 1.9% (n = 340,000). AID 651965, 2013. ATP-dependent Clp protease proteolytic subunit (Bacillus subtilis (strain 168)), P80244. Potency, µM (doses to about 57.5 µM), inactives show top-dose activity change, negative = active. purified B. subtilis ClpP, FRET peptide cleavage, 20 min; active = well fitted falling curve with a large enough effect; inconclusive = small, poorly fitted or top-dose-only effect; inactive = no such curve, though single readings can be large or run the other way; note: potency is the fitted concentration of half-maximal effect; the source files actives as falling curves though it sought activators and does not explain the sign; nearly all actives have a fitted effect of over 65% in size; many hits overshoot -100%
Target sequence (P80244 whole entry, looked up): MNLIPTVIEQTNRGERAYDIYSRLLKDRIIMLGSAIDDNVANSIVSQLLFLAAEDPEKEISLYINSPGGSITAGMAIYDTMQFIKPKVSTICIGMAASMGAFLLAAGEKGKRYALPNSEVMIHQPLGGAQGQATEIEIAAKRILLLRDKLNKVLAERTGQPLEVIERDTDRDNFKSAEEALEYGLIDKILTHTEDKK
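Buffer: 100 mM Tris/HCl pH8, 100 mM KCl, 0.05% low protease BSA, 2.5% glycerol, 0.01% Tween-20. ClpP 10 microg/mL final; 20 min RT; delta FRET normalized to ADEP and DMSO controls.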
Sfp inh: Sfp phosphopantetheinyl transferase inhibition; Biochemical Sfp PPTase activity, qHTS; AID 1490; actives 3.5% (n = 310,000); Potency, µM, for inactives: max response, negative = inhibition, hits mostly inhibitors; active = well fitted inhibition curve with a large enough effect; inconclusive = small, poorly fitted or top-dose-only effect, or another doubt; inactive = no such curve, though single readings can be large or run the other way;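 note: the enzyme is Sfp with the accession as filed and its product quenches rhodamine fluorescence; potency is the fitted concentration of half-maximal effect; 0% = enzyme reaction without inhibitor and -100% = no enzyme wells; top concentration of the series not given in the record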
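Buffer: 50 mM Hepes-Na pH 7.6, 10 mM MgCl2, 0.01% Nonidet P-40, 0.01% BSA. Enzyme 15 nM, pre-exposed to compound 15 min; substrates then added and fluorescence change tracked over 30 min.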
CtBP-E1A inh: CtBP/E1A binding inhibition | AlphaScreen GST-E1A/His-CtBP binding, 1536-well; stronger effect = lower value; control for the full effect not named in the record | activity change, % (no concentration beside the values) | actives 0.49% (n = 340,000) | AID 651724; in the data active means activity change below about -65%; inconclusive means about -30% to -65%; inactive means above about -30%; note: % is set by controls: 0 for no effect and ±100 for the full control effect; compound concentration not given in the record
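Homogeneous bead-based format: GST-tagged E1A captured on glutathione donor beads, His-tagged CtBP on nickel acceptor beads; compounds precede bead addition by 2 h at 37 °C.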
Menin-MLL FL inh: inhibitors of human menin-MLL interaction, wild-type MLL peptide; AID 1766; 290,000 tested, under 10 active; Fluorescence polarization, fluorescein-MLL peptide displacement from menin; FP activity change, % at 61.4 µM; inconclusive = falling polarisation curve, or a change in total fluorescence; inactive = total fluorescence flat and polarisation flat or rising; no compound was filed as active; the % refers to the polarisation; negative = inhibition;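 note: % of control where 0% means no effect; inhibitors lower the polarisation; unlabelled MLL peptide was the positive control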
gsp agonist: gsp mutant agonism; gsp mutant cells, cAMP HTRF, 30 min; control for the full effect not named in the record; Potency, µM (series often up to 76.9 µM), without a hit: top-dose activation (cAMP increase), usual class: activators; actives 0.13% (n = 340,000); AID 624287; active = well fitted activation curve with a large enough effect; inconclusive = small, poorly fitted or top-dose-only effect, or another doubt; inactive = no such curve, though single readings can be large or run the other way; cell line not stated here;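 note: phosphodiesterase inhibitor Ro 20-1724 added with compounds to block cAMP breakdown; potency is the fitted concentration of half-maximal effect; nearly all actives have a fitted effect of over 60% in size; about a fifth of the inactives were tested at one dose only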
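Cells stably selected in G418 were plated at 2000/well, grown 16-24 hr, then given compounds in DMSO with the PDE inhibitor […] (300 uM solution added) for 30 min at 37C; cAMP was read by HTRF.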
TRPV1 PAM: human TRPV1 potentiation. TRPV1-expressing cells, Fluo-8 calcium influx, capsaicin EC20 potentiation; host cell line not named in the record; control for the full effect not named in the record. Q8NER1. actives 0.02% (n = 320,000). AID 540277. potentiation, % at 8.33 µM; active means potentiation above 80%; inconclusive means 30% to 80%; inactive means below 30%; note: 0% is about no effect
Target sequence (Q8NER1 whole entry, looked up): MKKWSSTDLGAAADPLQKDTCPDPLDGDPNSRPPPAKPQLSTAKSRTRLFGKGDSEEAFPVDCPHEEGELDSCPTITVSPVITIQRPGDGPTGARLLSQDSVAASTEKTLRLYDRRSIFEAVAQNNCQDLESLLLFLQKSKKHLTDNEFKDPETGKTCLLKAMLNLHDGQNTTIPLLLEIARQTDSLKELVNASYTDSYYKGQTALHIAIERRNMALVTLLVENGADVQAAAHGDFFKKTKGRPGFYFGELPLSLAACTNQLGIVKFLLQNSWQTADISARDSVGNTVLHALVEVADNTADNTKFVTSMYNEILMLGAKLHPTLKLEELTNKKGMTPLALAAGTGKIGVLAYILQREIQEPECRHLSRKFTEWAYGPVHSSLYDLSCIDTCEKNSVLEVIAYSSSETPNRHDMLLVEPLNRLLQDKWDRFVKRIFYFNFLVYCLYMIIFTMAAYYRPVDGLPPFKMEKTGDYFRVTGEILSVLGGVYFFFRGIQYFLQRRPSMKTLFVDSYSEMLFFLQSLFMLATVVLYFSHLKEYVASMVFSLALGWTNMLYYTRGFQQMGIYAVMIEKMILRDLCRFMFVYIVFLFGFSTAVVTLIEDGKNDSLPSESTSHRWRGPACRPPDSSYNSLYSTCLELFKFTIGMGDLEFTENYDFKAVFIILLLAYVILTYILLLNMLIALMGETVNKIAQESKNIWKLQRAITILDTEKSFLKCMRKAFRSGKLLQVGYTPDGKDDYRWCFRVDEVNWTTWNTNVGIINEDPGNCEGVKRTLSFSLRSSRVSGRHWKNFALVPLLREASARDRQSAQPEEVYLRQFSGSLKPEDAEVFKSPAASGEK
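Cells expressing TRPV1 were dye-loaded with Fluo-8 and read kinetically: 10 s baseline, 3 min after compound (agonist portion), then 2 min after EC20 capsaicin (allosteric enhancer portion). Calcium-bound dye fluorescence at 480/520 nm.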
* = called active by the depositor; ? = inconclusive; / = no result given; & = joins results of further samples; [ ] = another dose, or the depositor's remark.

Start of the data: the first five entries as a preview:
SMILES	gsp antag	ClpP mod	Sfp inh	CtBP-E1A inh	Menin-MLL FL inh	gsp agonist	TRPV1 PAM
Cc1csc2c(NC3CCN(Cc4ccccc4)CC3)ncnc12	-2%	/	3%	3	2.9	-50%[inhibitor]	13
COc1ccc(N2C(=NC(=O)C3CCCCC3)SC3CS(=O)(=O)CC32)cc1OC (centres undefined)	4%	1.3%	-1%	1	2.0	0%	-3
c1ccc(CNCc2ccc3c(c2)OCO3)nc1	5%	-9.0%	18%	-3	2.4	-3%	1
CC12CCC(=O)N1C(C(=O)NNC(=O)COc1ccc(Br)cc1)CS2 (centres undefined)	13%	3.7%	/	-3	/	-11%	-3
O=C(COC(=O)c1ccc([N+](=O)[O-])s1)NCCc1ccccc1	-2%	-3.0%	/	/	/	-2%	-11

All compounds of this part (from the top)
SMILES	gsp antag	ClpP mod	Sfp inh	CtBP-E1A inh	Menin-MLL FL inh	gsp agonist	TRPV1 PAM
Cc1csc2c(NC3CCN(Cc4ccccc4)CC3)ncnc12	-2%	/	3%	3	2.9	-50%[inhibitor]	13
COc1ccc(N2C(=NC(=O)C3CCCCC3)SC3CS(=O)(=O)CC32)cc1OC (centres undefined)	4%	1.3%	-1%	1	2.0	0%	-3
c1ccc(CNCc2ccc3c(c2)OCO3)nc1	5%	-9.0%	18%	-3	2.4	-3%	1
CC12CCC(=O)N1C(C(=O)NNC(=O)COc1ccc(Br)cc1)CS2 (centres undefined)	13%	3.7%	/	-3	/	-11%	-3
O=C(COC(=O)c1ccc([N+](=O)[O-])s1)NCCc1ccccc1	-2%	-3.0%	/	/	/	-2%	-11
O=C1NC[C@H](Cc2ccccc2)N(CC2CCN(CCC3CCCC3)CC2)C1=O	11%	0.2%	/	-21	/	/	/
Cc1cccc(-c2noc(CNC(=O)c3ccc4c(c3)OCO4)n2)c1	-17%	/	5%	7	1.6	5%	-3
COc1ccccc1/C=N/NC(=O)CN(C1=NS(=O)(=O)c2ccccc21)c1ccccc1	-20%	-9.5%	?	-4	0.6	-24%	-6
CCCNC(=O)N(C)C[C@@H]1Oc2cc(Br)ccc2S(=O)(=O)N([C@@H](C)CO)C[C@H]1C	/	-6.3%	/	-6	/	?	/
CCOC(=O)C1CCCN(C(=S)NC(=O)c2cc(Br)ccc2Cl)C1 (centres undefined)	1%	/	/	-10	/	11%[15.4 µM]	5
CC(C)OP(C)(=O)CN1CCN(CP(C)(=O)OC(C)C)CC1 (centres undefined)	0%	-0.4%	8%	7	0.0	4%	-4
O=[N+]([O-])c1ccc(N/N=C/c2cccs2)nc1	-2%	-0.3%	/	/	/	?	/
C=CS(=O)c1sc(Cl)c(N2CCOCC2)c1[N+](=O)[O-] (centres undefined)	-16%	/	10µM*	-1	-2.8	19%[15.4 µM]	-24
Cc1ccc(-n2c(SCC(=O)c3c(N)n(C)c(=O)n(C)c3=O)nc3sc4c(c3c2=O)CCCC4)c(C)c1	-6%	-3.4%	56µM*	-15	3.4	26%	13
COc1ccc2sc(-c3ccc(S(C)(=O)=O)cc3)c(-c3ccc(SC)cc3)c2c1	-16%	3.8%	/	1	/	26%	/
CC(=O)c1cccc(NC(=O)c2c(-c3c(F)cccc3Cl)noc2C)c1	3%	-2.7%	/	2	/	-8%	4
CCc1ccc(NC(=O)COC(=O)CN2C(=O)COc3ccccc32)cc1	-10%	-0.7%	-6%	6	-0.3	-6%	-1
CC(C)N(C(=O)[C@H]1C[C@H](CC(=O)NCC23CC4CC(CC(C4)C2)C3)C(=O)N2CCc3c([nH]c4cc(-c5ccco5)ccc34)[C@]12C)C(C)C	0%	4.9%	/	3	/	/	/
O=C(CSc1nnc(CNC(=O)c2ccc(F)cc2)o1)NCc1ccc(F)cc1	-7%	0.9%	5%	1	/	10%[15.4 µM]	7
CCC1(C)N=C(N)Nc2nc3cc(C)c(C)cc3n21 (centres undefined)	-6%	-9.2%	6%	/	-4.5	-40%[inhibitor]	4
CCOC(=O)CSc1ccc(C(=O)Nc2ccc(Cl)cc2)cn1	-14%	/	16%	-18	-4.3	3%	5
COc1ccc(-n2nnc3c(SCC(=O)NCC4CCCO4)ncnc32)cc1 (centres undefined)	-15%	1.8%	-8%	10	3.9	21%	-9
Nc1nnc(SCC(=O)NCC(=O)Nc2ccc(F)c(F)c2F)s1	5%	0.2%	/	/	/	-2%	-2
Cc1ccc(C(=O)Nc2ccc(Oc3cccc(C(F)(F)F)c3)nc2)cc1	2%	-0.7%	17%	1	3.0	1%[15.4 µM]	-6
O=C(CCC(=O)NNC(=O)Cc1ccccc1)NCc1ccccc1	5%	/	22%	/	-3.5	-18%[15.4 µM]	6
The list goes on.
SMILES	gsp antag	ClpP mod	Sfp inh	CtBP-E1A inh	Menin-MLL FL inh	gsp agonist	TRPV1 PAM
CC1=Nn2c(nnc2-c2ccccc2F)SC1	6%	-1.6%	10%	-2	6.0	-9%	3
COc1cccc(C(=O)NNC(=O)Cc2ccc([N+](=O)[O-])cc2)c1	-5%	-21%	17%	-6	-0.6	-4%	-9
Cc1nnc(Nc2ccc(O)cc2)[nH]c1=O	4%	/	6%	2	2.5	19%	2
Cn1c(SCC(=O)N2c3ccccc3CCc3ccccc32)nnc1-c1ccc(O)cc1	-10%	1.0%	14%	-19	4.0	25%	-1
COc1cc(-c2c(C(C)=O)c(C)nc3c2C(=O)c2ccccc2-3)cc(OC)c1OC	3%	/	10%	10	0.0	28%	4
Cc1cc(Cl)ccc1OCC(=O)n1cc(C(=O)c2cc(Cl)ccc2O)cn1	/	/	23%	/	-3.7	/	2
COC(=O)c1ccc(N2Cc3ccccc3/C2=N\C(=O)Nc2ccccc2)cc1	-4%	18%	-10%	-5	-0.8	5%	14
CCc1ccc(C(C(=O)NC2CCCC2)N(C(=O)c2csnn2)C2CC2)cc1 (centres undefined)	7%	0.4%	12%	0	/	0%[15.4 µM]	1
O=C(NC1CCCCC1)c1ccccc1-c1ccccc1	6%	?	23%	-1	3.5	25%[15.4 µM]	3
C/C(=N\NC(=O)c1c([N+](=O)[O-])c(C)nn1C)c1ccc(NC(=O)c2ccc(C)o2)cc1	-14%	2.7%	7%	-18	/	?	15
CN(C)c1ccc(C(=O)N(Cc2ccccc2)Cc2ccccc2)cc1	-8%	-3.7%	-9%	-1	2.1	-4%	-8
Cc1ccc(-n2nc3c(=O)n(CCCC(=O)NCc4ccc(F)cc4)nc(C)c3c2C)cc1	-12%	-1.1%&-1.3%	14%	/	3.2	?	4
CCCNC(=O)CN1C(=O)NC(Cc2c[nH]c3ccccc23)C1=O (centres undefined)	13%	/	-6%	8	-0.8	7%[15.4 µM]	12
Cc1coc2cc3oc(=O)c(CCC(=O)NC4CC4)c(C)c3cc12	?	4.8%	7%	-14	2.3	/	-25
C1=Nc2c(NCc3ccccc3)ncnc2Oc2ccccc21	10%	-1.0%	7%	-4	2.8	14%	-13
Cc1sc2ncnc(SCc3ccco3)c2c1C	11%	-2.2%	?	-1	0.8	0%	1
CC(C)C(NC(=O)C1CCCCC1)C(=O)NC1CCCC(C)C1C (centres undefined)	12%	-20%	-3%	-22	-3.1	11%[15.4 µM]	-19
O=S(=O)(Nc1cccc(-c2ccc(N3CCOCC3)nn2)c1)c1cc(Cl)ccc1Cl	-22%	/	/	5	/	-1%[15.4 µM]	25
CN(CCOc1ccccc1)C(=O)CNC(=O)c1ccc(C(C)(C)C)cc1	-8%	0.5%	/	/	/	-22%	-15
COc1cc(NC(=O)c2ccc(NC3=NC4CS(=O)(=O)CC4S3)cc2)cc(OC)c1OC (centres undefined)	1%	1.1%	8%	-13	-0.3	22%	-8
CC(C)c1ccc(C(CC(=O)O)N2Cc3ccccc3C2=O)cc1 (centres undefined)	4%	-1.2%	19%	/	-2.6	21%	21
CCOc1ccc(-n2c(SCC(=O)NCc3ccco3)nc3c(c2=O)SCC3)cc1	-26%	-6.4%	6%	-12	1.9	2%	-2
COc1ccc(Cl)cc1S(=O)(=O)Nc1ncn[nH]1	13%	/	-7%	7	-5.7	-35%[15.4 µM]	3
Fc1ccc(-n2nnnc2-c2cnc(-c3cccs3)nc2C(F)(F)F)cc1	?	?	10%	2	-1.9	-42%[inhibitor]	-17
C[C@@H]1C(c2cccc(Cl)c2)=NN(c2ccc(Br)cc2)[C@H]1C(=O)N1CCOC1=O	-8%	4.6%	15%	48	5.1	/	/
Continued.
SMILES	gsp antag	ClpP mod	Sfp inh	CtBP-E1A inh	Menin-MLL FL inh	gsp agonist	TRPV1 PAM
COc1ccc2c(c1)CCC/C2=N\OC(=O)c1ccccc1F	7%	/	?	8	1.3	10%	1
Cc1sc2ncnc(N3CCC(C(=O)NNC(=O)COc4ccc(Br)cc4)CC3)c2c1C	32µM*	/	/	-21	/	-17%[15.4 µM]	10
CCC(NC(=O)NC1=NCCS1)(C(F)(F)F)C(F)(F)F	9%	-2.4%	7%	6	-1.3	-26%	1
O=C(c1ccco1)N1CCN(S(=O)(=O)c2ccc(F)cc2)CC1	12%	-0.4%	10%	6	0.2	8%	-15
CCN(CC)C(=O)[C@H]1C[C@H](CC(=O)NC/C=C(\C)CCC=C(C)C)C(=O)N2CCc3c([nH]c4cc(CCC(=O)N(C)C)ccc34)[C@]12C	-4%	-1.8%	/	-5	/	/	/
O=C(NNC(=S)NCc1ccccc1)c1ccc2c(c1)OCO2	0%	13%	5%	8	0.2	0%	0
Cc1cc(C(F)F)nn1CC(=O)NCc1ccc(Cl)cc1Cl	11%	3.0%	-4%	-9	0.7	-2%	?
CCOC(=O)c1cnc2nc(C(F)(F)F)[nH]n2c1=O	10%	-28%	-2%	2	1.3	-37%[inhibitor]	8
Cc1nn(C(C)CC(=O)O)c(C)c1Br (centres undefined)	2%	0.1%	-2%	5	-0.5	26%	-4
c1cncc(-c2nc3cc4ccccc4cc3[nH]2)c1	-19%	?	3%	1	4.1	30%	/
CNC(=O)NC(=O)CSc1nnc(-c2ccc(F)cc2)n1CC1CCCO1 (centres undefined)	17%	/	17%	0	-2.4	21%[15.4 µM]	11
C=CCc1cccc(/C=N/c2ncccc2O)c1O	-1%	-11%	?	-14	0.5	2%	-1
